Screening data (PubChem)
CapD inh: CapD enzyme inhibition; z-score (concentration not given with the values); AID 492967; hit rate 0.23% among 140,000; purified CapD enzyme, fluorescence intensity read-out; hits give low values; some hits fall short of the stated cut;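 active means z-score under -4 in either of two replicates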;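 further: stock transfer was 100 nL into about 40 µL; score is relative to mean and spread of the plate; one replicate is shown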
AID504770: E. coli YBA685 growth inhibition, screen for V. cholerae RctB inhibitors. E. coli YBA685 rctB-dependent plasmid, OD600 growth, 3 h; hits give low values. z-score (no concentration beside the values). hit rate 0.27% among 130,000. AID 504770;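 active means z-score under -2 on both plates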;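 further: wells of about 30 µL received 100 nL stock; score is relative to mean and SD of the test wells; the first replicate is given; strong numbers were not always called active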
The depositor's hits bear a star; . = no result given. An unsorted share of the library; 0.37% or so of the library scored in one or more.

SMILES	CapD inh	AID504770
O=C(NCc1ccc(C(=O)NC2CCCCC2)cc1)OCc1ccccc1	-0.43	.
O=C(NNC(=O)c1csc(-c2ccccc2)n1)NC1CCN(Cc2ccccc2)CC1	0.13	.
CC(C)(CC(=O)O)CC(=O)Nc1cc(Cl)ccc1Cl	0.39	1.8
Cn1c(C(=O)N2CCC(C(=O)NC3CCCc4ccccc43)CC2)cc2sccc21 (stereo not given)	0.29	0.25
O=C(Cn1cnnn1)NC1CCCc2ccccc21 (stereo not given)	.	-0.25
O=C1OC(c2ccc(F)cc2)c2ccccc21 (stereo not given)	0.21	-0.3
Fc1ccc(Oc2ccnc3cc(Cl)ccc23)cc1	-0.31	.
O=C1c2cccc3cc([N+](=O)[O-])cc(c23)C(=O)N1Cc1ccco1	-0.075	.
CCCCN1C=C(C(=O)OC)C(c2cccc(OC)c2OC)C(C(=O)OC)=C1	12	0.15
CN(C)S(=O)(=O)c1ccc2c(c1)C(CC(=O)O)OC2=O (stereo not given)	.	1.2
O=C(NCc1cccc(C(F)(F)F)c1)c1cc2sccc2nc1C(F)(F)F	-0.25	.
CC(C)C(=O)Nc1ccccc1OC(F)F	.	0.85
Cn1c(=O)c(C2=NS(=O)(=O)c3ccccc3N2)c(O)c2ccccc21	.	0
Cc1cc(C)nc(SCC(=O)OCC(=O)N2CCc3ccccc32)n1	.	-0.35
CCOc1ccc(OCC)c(S(=O)(=O)N2CCCCC2)c1	-0.47	2.2
Oc1cccc(NC(=S)Nc2cccnc2)c1	0.38	-0.65
CC(C)(C)C(=O)C(Oc1ccc(Cl)cc1)n1cnnc1 (stereo not given)	0.62	-0.75
COc1ccc(-c2cn(-c3ccc(C)cc3C)c(=S)[nH]2)cc1OC	-0.19	-0.2
CC(C)C(NC(=O)Cc1c[nH]c2ccccc12)C(=O)NC(C(=O)Nc1ccc2ccccc2c1)C(C)C (stereo not given)	-0.15	.
N/C(CN1CCSCC1)=N\OC(=O)c1cccs1	0.09	-0.2
CC(SCc1cn2cc(Cl)ccc2n1)C(=O)O (stereo not given)	.	1.6
CCOC(=O)c1sc2ncnc(Nc3ccc4c(c3)OCO4)c2c1C	1.3	.
CCOC(=O)C1=C(N)OC2=C(C(=O)CCC2)C1c1ccc(OCC)cc1 (stereo not given)	-0.98	.
C=CCN(CC=C)C(=O)c1cccs1	0.3	-0.9

An excerpt of these results, with values under each structure.
Values run as follows: CapD inh | AID504770
CCOc1ccc(OCC)c(S(=O)(=O)N2CCCCC2)c1
    -0.47 | 2.2
Oc1cccc(NC(=S)Nc2cccnc2)c1
    0.38 | -0.65
CC(C)(C)C(=O)C(Oc1ccc(Cl)cc1)n1cnnc1 (stereo not given)
    0.62 | -0.75

(further entries)
SMILES	CapD inh	AID504770
COc1cccc(C(=O)NCc2nnc(SCC(=O)N3N=C(c4cccs4)CC3c3ccc(C)cc3)n2C)c1 (stereo not given)	23	.
O=C(SCc1cccs1)c1csc(C2COc3ccccc3O2)n1 (stereo not given)	-0.46	-0.2
CC(C)C(=O)N1CCN(c2ccccc2N)CC1	0.29	2.2
N#Cc1ccc(NC(=O)C2CC(c3ccc(F)cc3)=NO2)cc1 (stereo not given)	-0.29	-0.65
O=C(CCl)O/N=C1\C(=O)N(Cc2ccc(Cl)cc2)c2ccc(Cl)cc21	-0.72	.
COc1ccccc1N1CCSC1C(N)=O (stereo not given)	-0.03	-0.8
COc1ccc(C2C(C(=O)OC3CCCCC3)=C(C)NC3=C2C(=O)CCC3)c(OC)c1OC (stereo not given)	10	-1
O=C(NN=C1CCCC1)C1CCN(S(=O)(=O)c2cccs2)CC1	.	1.1
O=C1CCCC2=C1C(c1ccccc1C(F)(F)F)c1c(ccc3ncccc13)N2 (stereo not given)	42	0.35
CC(C)(C)NC(=O)CCSc1nnc(-c2ccccc2)o1	.	-0.3
CCC(c1nnc(SC(C)C(=O)NCc2ccc3c(c2)OCO3)n1Cc1ccccc1)N(C)C (stereo not given)	.	-0.3
OCCN1CCN(c2ncnc3c2c(-c2ccccc2)cn3-c2cccc(C(F)(F)F)c2)CC1	0	.
CCN1CCN(C(=O)c2c[nH]n3c(=O)c(Cc4cccc(C)c4)c(C)nc23)CC1	1.5	-1.9
Cc1csc2nc(CSc3nnc(-c4ccccc4Cl)n3C3CCCC3)cc(=O)n12	.	-0.05
COC(=O)c1c(NS(=O)(=O)c2cccs2)sc2c1CCCC2	-0.22	0.65
CCCCC(=O)Nc1nnc(SCC(=O)Nc2nnc(-c3cccc([N+](=O)[O-])c3)s2)s1	-0.32	.
CC(C)N(Cc1ccc(N(C)C)cc1)C(=S)Nc1ccc(Cl)cc1	-1.2	.
O=C(NCc1ccc2c(c1)OCO2)NCC1CCCC(CNC(=O)NCc2ccc3c(c2)OCO3)C1 (stereo not given)	.	0.1
COC(OC)C12c3ccccc3C(c3ccccc31)C1C(=O)N(Cc3ccco3)C(=O)C12 (stereo not given)	-0.42	.
Cc1cccc(NC(=O)CN(C)S(=O)(=O)c2cccs2)c1C	0.12	1.9
CCOc1cccc2cc(C(C)NCc3ccc(C)o3)oc12 (stereo not given)	.	-0.35
CC(C)(C)OC(=O)Oc1ccc(/C=N/NC(=O)c2ccc3ccccc3c2)cc1	-0.22	.
O=c1[nH]c(=O)n(-c2ccc(Cl)cc2)c(O)c1C=Nc1ccc(N2CCOCC2)cc1	-0.41	0
COc1ccc(C(=O)CC2(O)C(=O)N(C)c3ccccc32)cc1[N+](=O)[O-] (stereo not given)	-0.34	.
CCCCn1c(SCC(=O)NC(C)(C#N)C(C)C)nnc1C(CC)N(C)C (stereo not given)	.	0.8
O=C(COc1ccccc1)Nc1ncn[nH]1	.	-1.6
N#C/C=C(\c1ccc(F)cc1)N1CCCCC1	.	-0.1
O=C1c2cc([N+](=O)[O-])cc3cc([N+](=O)[O-])cc(c23)C(=O)N1c1ccc(Br)cc1	-0.68	.
CCc1ccc(N2C(=O)C3C(C(=O)OC)=NN(C(C)=O)C3C2=O)cc1 (stereo not given)	.	-0.7
O=C1/C(=C/c2ccccc2)N=C2CCCCCN12	.	0.4
Brc1ccc(C2=CSc3ccccc3N2)cc1	-0.075	-0.85
CC(=O)N(CCC(Cc1ccccc1)c1ccc2c(c1)OCO2)Cc1ccc2c(c1)OCO2 (stereo not given)	0.51	-0.55
O=C(NNC(=O)C1Cc2c(ccc3ccccc23)O1)c1ccc(Cl)cc1 (stereo not given)	1.8	.
O=C(CSc1nc2cc(Cl)ccc2s1)NC1CCCC1	0.7	0.2
O=C(CSc1n[nH]c(=O)[nH]c1=O)N/N=C/c1ccccn1	0.14	1
CC(=O)OC[C@H](OC(C)=O)[C@H](OC(C)=O)[C@@H](CNC(=O)c1ccc(C)c(C)c1)OC(C)=O	0.41	.
CCOC(=O)c1ccc(NC(=O)CSc2nc3ccccc3c(=O)n2NC(=O)Cc2ccccc2)cc1	-0.11	.
CN1N=C(C(F)(F)F)CC1=O	0.05	0.5
Cc1nc(N2CCCCC2C)c2c(C)c(C(=O)O)sc2n1 (stereo not given)	-1.2	.
O=C(/C=C\Nc1ccccn1)c1ccc2c(c1)OCO2	.	0.2
C=CCc1c(C)nc(SCC(C)C)[nH]c1=O	0.01	1.5
COc1ccc(CCNS(=O)(=O)c2ccc(Cl)c(Cl)c2)cc1	-0.41	.
CC(C)c1nnc(NC(=O)/C=C/c2ccc3c(c2)OCO3)s1	16	-0.55
O=c1c2ccccc2nc(-c2cccs2)n1NCc1ccccc1F	-0.84	0.25
CC1(C)C(=O)C2(CCCCC2)C(=O)OC1c1ccc(Br)o1 (stereo not given)	-0.3	-0.15
Cc1ccccc1Nc1nc(N)nc(COn2nnc3ccc(S(C)(=O)=O)cc32)n1	.	-0.85
CCOC(=O)c1c(NC(=O)CSc2nnc(CNC(=O)c3ccco3)n2-c2cccc(C)c2C)sc2c1CCC2	0.15	.
CCOC(=O)CN1C(=O)C2(OCCO2)c2cc(Br)ccc21	1.5	-0.55

Two of the compounds above, with two lines to a compound:
Fields – CapD inh	AID504770
- Cn1c(C(=O)N2CCC(C(=O)NC3CCCc4ccccc43)CC2)cc2sccc21 (stereo not given)
 : 0.29	0.25
- O=C(Cn1cnnn1)NC1CCCc2ccccc21 (stereo not given)
 : .	-0.25

Sorted by molar mass (largest number first): five of the compounds above
SMILES	CapD inh	AID504770
CCOC(=O)CN1C(=O)C2(OCCO2)c2cc(Br)ccc21	1.5	-0.55
O=c1c2ccccc2nc(-c2cccs2)n1NCc1ccccc1F	-0.84	0.25
Cc1nc(N2CCCCC2C)c2c(C)c(C(=O)O)sc2n1 (stereo not given)	-1.2	.
O=C(/C=C\Nc1ccccn1)c1ccc2c(c1)OCO2	.	0.2
C=CCc1c(C)nc(SCC(C)C)[nH]c1=O	0.01	1.5

(listing goes on)
SMILES	CapD inh	AID504770
CCCN(CCO)CC1CCCCC1	-0.025	-0.15
CC(C)CCn1c(=O)c2cccnc2n(Cc2cccc(Cl)c2)c1=O	0.055	1
CC(=O)Nc1ccc(NC(=O)CCCC(=O)O)cc1	-1.1	-0.6
CCOC(=O)C1CCCN(S(=O)(=O)c2ccc(C)cc2)C1 (stereo not given)	-0.97	-0.45
CCOc1ccc2nc(Sc3ccc(C=C4C(=O)NC(=O)NC4=O)o3)sc2c1	-0.04	.
CCC(Oc1ccccc1)C(=O)NCc1ccc2c(c1)OCO2 (stereo not given)	-0.35	-0.95
Cc1cccc(NC(=O)CN(CC2CCCO2)C(=O)c2cc(-c3ccco3)nc3ccccc23)c1C (stereo not given)	.	-0.8
CC(=O)N(C)c1cccc(-c2ccc3nnc(C)n3n2)c1	25	-0.2
Cc1ccc2c(c1)C1(NN=C(c3ccccc3O)S1)C(=O)N2 (stereo not given)	-1.6	.
C=CCn1cc(C(=O)c2cc(Cl)ccc2O)cc(C#N)c1=O	.	0.25
O=C(CC1Sc2ccccc2NC1=O)Nc1ccc(F)cc1 (stereo not given)	0.04	0.5
COc1cccc(CCOC(=O)NNC(=O)c2cccs2)c1	0.74	.
C=CC[C@H]1CC(C)=C[C@H](CC=C)N1C(C)=O	0.075	-0.25
CCn1c(COc2ccc(Cl)c(C)c2)nc2cc(S(=O)(=O)N(C)C)ccc21	.	-0.15
CCCOC(=O)C1=C(C)NC2=C(C(=O)CC(c3ccc(OC)c(OC)c3)C2)C1c1ccc(SC)cc1 (stereo not given)	22	.
N#C/C(=C\c1ccc(N2CCCCC2)o1)C(N)=O	.	-0.65
Clc1ccc(-c2csc(-c3cccc(-n4cccc4)c3)n2)cc1	1.9	0.5
COc1ccc(CN2CC(C(=O)NCC3CCCO3)CC2=O)cc1 (stereo not given)	0.62	-0.45
CCOC(=O)c1ccc(NC(=O)C23CCC(C)(C(=O)C2)C3(C)C)cc1 (stereo not given)	0.5	1
CC(C)c1ccc(S(=O)(=O)/N=C2/C=C(Sc3ncn[nH]3)C(=O)c3ccccc32)cc1	0.61	0.4
c1cncc(-c2noc(-c3ccc4c(c3)OCO4)n2)c1	2.2	-0.6
CC(=O)c1ccc(OCc2ccc(Cl)c(Cl)c2)c(C)c1O	-0.49	.
S=C(NCCN1CCOCC1)NC1CCCc2ccccc21 (stereo not given)	-0.05	-1
COc1ccc(OC)c(C2C(C(=O)Nc3ccccc3)=C(C)Nc3nnnn32)c1 (stereo not given)	-0.43	.
Cc1nc2cc(NS(=O)(=O)c3ccccc3F)ccc2s1	-0.12	0.7
Nc1nc2nccnc2c(=O)[nH]1	86	-1.1
COc1nsnc1NS(=O)(=O)c1ccc(-n2c(-c3ccc4ccccc4n3)n[nH]c2=S)cc1	-0.49	-0.5
Cc1ccc(Cn2c(=O)n(-c3ccc(C)c(C)c3)c(=O)c3oc4ccccc4c32)cc1	1.9	1.9
O=S(=O)(Nc1cccc(-c2cn3ccccc3n2)c1)c1ccc2ccccc2c1	11	.
COc1ccc(C(CC(=O)NCCc2ccco2)n2cccc2)cc1 (stereo not given)	-0.02	0.3
CCCN(Cc1nc2cc(Cl)ccc2c(=O)[nH]1)C(=O)c1ccc(S(=O)(=O)N2CCCC2)cc1	.	0.85
CCOc1ccc(C2C(C(=O)c3ccc(C)o3)=C(O)C(=O)N2Cc2cccnc2)cc1OC (stereo not given)	-0.24	-0.3
Cc1ccccc1-c1nc(CS(=O)(=O)CC(=O)N2CCCC2)c(C)o1	-0.43	0.4
CCOc1cc(C2CC(=O)NC(SCC(=O)Nc3cccc(Cl)c3C)=C2C#N)ccc1O (stereo not given)	0.64	.
CCOc1ccc(N=c2ssc3c2-c2cc(C)c(C)cc2NC3(C)C)cc1	-0.055	.
COC(=O)C1CCN(C(=O)c2cc(S(N)(=O)=O)ccc2OC)CC1	.	0.1

Look-ups from the list.
Reading of `CCOc1ccc(C2C(C(=O)c3ccc(C)o3)=C(O)C(=O)N2Cc2cccnc2)cc1OC` (stereo not given) under CapD inh: -0.24
Reading of `CCOc1ccc(N=c2ssc3c2-c2cc(C)c(C)cc2NC3(C)C)cc1` under CapD inh: -0.055

(listing goes on)
SMILES	CapD inh	AID504770
COc1ccc2nc(NC(=O)C3CCC3)sc2c1	0.055	-0.95
Cc1nsc(N)c1C(=O)O	.	1.3
CCOc1ccc(CCNC(=O)N(CC)CCc2ccccn2)cc1	0.11	.
O=C(NCCc1ccccc1)c1c[nH]c2ccc(S(=O)(=O)N3CCCCC3c3cccnc3)cc2c1=O (stereo not given)	-0.56	.
N#CCCn1cc(C(=O)COc2ccccc2C#N)c2ccccc21	.	0.25
O=C(NCCNc1nccc(C(F)(F)F)n1)c1cccs1	1.2	.
CN(C)c1ccc(CN2CCN(CCOC(=O)N3CCN(c4cc(C(F)(F)F)ccn4)CC3)CC2)c2ccccc12	51	.
O=C(NCCc1cnc[nH]1)c1ccc(CSc2ccccn2)o1	-0.9	.
Cc1nc2n(c(=O)c1CCN1CCC(c3noc4cc(F)ccc34)CC1)CCCC2	-1.9	.
CCOc1ccc(C(=O)Nc2cc(-c3nc4cc(C)ccc4o3)ccc2Cl)cc1Br	0.12	.
